Rango-impB inh – inhibitors of Rango-importin beta complex formation; Q14974; Rango CFP/YFP FRET sensor + importin beta, 45 min; Potency, µM (titrated, usually from 92.2 µM), without a hit: at the top dose inhibition of complex formation; 0.031% of 340,000 active; active = rising FRET ratio curve, often small or poorly fitted; inconclusive = mostly compound fluorescence or quenching in the first reads; inactive = flat curves in all reads;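 further: potency means the concentration at half of the fitted maximal effect; 0% = DMSO wells and 100% = buffer wells lacking importin beta; nearly all actives have a fitted effect of over 15% in size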
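Inhibition scored from the CFP 486 nm/YFP 530 nm FRET ratio 45 min after adding 0.125 microM importin beta to 50 nM Rango biosensor preincubated 5 min with compound (room temperature, PBS with DTT, Tween-20, BSA). No-importin wells as positive control.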
miR-21 reporter – miR-21 reporter, rising signal. HeLa miR-21 FLuc reporter, luciferase, 48 h. Potency, µM (highest dose often 38.3 µM), for the others: at the highest dose reporter change, positive = more light. 340,000 tested, under 10 active. AID 2288; active = well fitted rising curve with a large enough effect; inconclusive = small, poorly fitted or top-dose-only effect; inactive = no such curve, though single readings can be large or run the other way;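 further: % of control where 0% means no effect; miR-21 action dims this reporter so a rising signal means less miR-21 action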
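HeLa cells endogenously expressing miR-21, stably carrying CMV-driven firefly luciferase with a downstream miR-21 binding site, 2000 cells/well. Titrations up to approximately 40 uM, 48 hours; luciferase luminescence read.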
GLA inh pH 4.5 – blocks human alpha-galactosidase A at pH 4.5 | activity change, negative = inhibition, % at 105 µM | 230,000 tested, under 10 active | purified enzyme, 4-MU-alpha-Gal fluorescence, pH 4.5 | AID 1467; inconclusive = small, poorly fitted or top-dose-only inhibition, or a rising curve; inactive = flat fitted curve, though single readings scatter; no compound was filed as active;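 further: 0% = full activity with enzyme and -100% = basal without enzyme; dose as in the result columns while the protocol names 77 µM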
Target sequence (P06280 whole entry, looked up): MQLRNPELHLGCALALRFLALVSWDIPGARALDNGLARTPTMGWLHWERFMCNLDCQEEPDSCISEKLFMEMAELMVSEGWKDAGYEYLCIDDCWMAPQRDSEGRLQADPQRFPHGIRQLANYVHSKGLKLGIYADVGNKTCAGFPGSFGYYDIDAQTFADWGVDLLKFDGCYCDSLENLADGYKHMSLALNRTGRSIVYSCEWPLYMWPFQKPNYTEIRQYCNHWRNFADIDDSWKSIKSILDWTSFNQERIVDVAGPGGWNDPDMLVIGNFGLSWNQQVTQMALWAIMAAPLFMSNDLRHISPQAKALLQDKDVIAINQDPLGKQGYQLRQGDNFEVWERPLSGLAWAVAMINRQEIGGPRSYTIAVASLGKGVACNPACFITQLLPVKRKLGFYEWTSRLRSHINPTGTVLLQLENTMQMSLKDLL
Rango dissoc inh – inhibitors of RanGTP-induced Rango-importin beta complex dissociation | O95149+P62826 | Biochemical FRET Rango-importin beta, RanGTP-induced dissociation | Potency, µM (highest dose often 46.1 µM), without a hit: at the top dose activity change, negative = inhibition | 0.071% of 340,000 active | AID 540253; active means falling FRET ratio curve, often poorly fitted, with flat reads before Ran was added; inconclusive means other falling curves, or compound fluorescence or quenching; inactive means flat or rising ratio curve;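 further: potency means the concentration at half of the fitted maximal effect; % of control where 0% means no effect; nearly all actives have a fitted effect of over 45% in size; -100% = wells without RanGTP and RCC1; the record marks most hits as doubtful in a second field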
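Rango/importin beta premix (0.1/0.25 uM final), PBS + 1 mM DTT + 0.02% Tween-20 + 0.1% BSA; cpd 5 min RT; FRET pre-read; + RanGTP-RCC1 (0.6 uM Ran, 2 mM GTP, 0.2 uM RCC1); 45 min RT; FRET post-read, ex 430, em 486/530 nm.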
An asterisk follows results filed as active; u = inconclusive; x = not tested or not shown; & = joins results of further samples; [ ] = remark or other dose. Some of the compounds tested, so the mix of outcomes need not match the whole.

SMILES	Rango-impB inh	miR-21 reporter	GLA inh pH 4.5	Rango dissoc inh
CC1CC(C)CN(CCCNC(=O)CN2C(=O)CSc3ccc(S(=O)(=O)N4CCOCC4)cc32)C1 (stereo unspecified)	4.2%	-3%	x	-1%
O=C(OCC(=O)N1CCCC1)c1ccc(OC(F)(F)F)cc1	-0.6%	-2%	2	2%
COc1ccc(-c2noc3c2-c2nc(-c4ccc(Cl)cc4)sc2CC3)cc1	0.7%	-1%	x	8%
CCOc1cc(/C=C(\C#N)C(=O)Nc2cccc(C(=O)O)c2)ccc1OCc1ccccc1Cl	4.9%	-2%	x	1%
O=C(NCC1CCCO1)c1ccc(Oc2ccc([N+](=O)[O-])cc2Cl)cc1 (stereo unspecified)	-1.5%	20%	0	-3%
COc1ccccc1C(=O)NCC(=O)N/N=C/c1ccc2c(c1)OCO2	-3.4%	23%	x	0%
COc1cc(C#N)ccc1OC(=O)c1cccc(S(=O)(=O)N2CCN(C)CC2)c1	4.4%	x	x	-12%
O=C(O)Cc1ccc(NC(=O)Nc2ccc(Br)cc2)cc1	-0.8%	-8%	3	1%
COc1cc2cc[n+](Cc3ccc([N+](=O)[O-])cc3)cc2cc1OC	0.8%	10%	x	-12%
COc1ccccc1/C=C1\SC(=O)N(CCC(=O)N(C)C2CCS(=O)(=O)C2)C1=O (stereo unspecified)	-2.2%	-12%	x	1%
CCc1ccc(CC(=S)N2CCOCC2)cc1	-0.4%	-27%	3	6%
CCOc1ccccc1N1CCN(C(=S)Nc2ccc(S(N)(=O)=O)cc2)CC1	1.9%	0%	2	-5%
Cn1nnnc1SCc1ccc(CSc2nnnn2C)cc1	-2.2%	1%	-5	-12%
CN1CCN(C(=O)N2CCNC2=O)CC1	1.7%	-4%	2	-7%
CO/N=C/NC(=O)c1c(OC)ccnc1Oc1ccccc1	4.4%	2%	-7	1%
COc1cccc(-c2c(C#N)c(N)nc3c2c(C)nn3-c2ccccc2)c1O	u	12%	x	-5%
Cc1ccc(OCC(=O)N(C)C2CCCCC2)c([N+](=O)[O-])n1	-1.2%	x	x	-9%
Cc1ccc2nc(-c3ccc(NC(=O)CSc4nc(N)cc(=O)[nH]4)cc3)sc2c1	1.0%	-74%	3	-1%
CCN(C(=O)c1ccc(=O)[nH]c1)c1c(N)n(Cc2ccccc2)c(=O)[nH]c1=O	4.3%	x	x	7%
CCNC(=O)NC(=O)CSc1nnc(-c2c[nH]c3ccccc23)o1	-3.2%	-8%	x	15%
COc1ccc(OC)c(/C=N\NC(=O)c2ccc(-c3ccccc3)cc2)c1	u	-1%	x	u
CC1=C(C(=O)Nc2ccccc2C)C2(CCCCC2)C(C(N)=O)C(=S)N1 (stereo unspecified)	1.8%	-5%	4	2%
COc1ccccc1CNC(=O)[C@@H](NC(=O)C1CCN(C(=O)[C@@H]2CCCN2C(=O)OC(C)(C)C)CC1)C(C)C	1.4%	-6%	x	1%
C/C(NCC(C)(C)CN(C)C)=C(/C#N)C(=O)NCc1ccccc1	-3.8%	-6%	0	u
CCc1ccc(S(=O)(=O)Nc2cccc(-c3ccc4nncn4n3)c2)s1	1.5%	21%	-1	1%
O=C(N1CCOCC1)N1CCC(n2nnc3cc(F)ccc32)CC1	0.6%	-2%	3	-8%
Cn1c(=O)c2c(nc(OCC3COC(C)(C)O3)n2Cc2ccccc2F)n(C)c1=O (stereo unspecified)	0.5%	-7%	-3	33%
Oc1ccc(/C=C/c2ccnc3ccccc23)cc1	u	-32%	-11	-1%
O=C(Cc1ccccc1)Nc1ccc(NC(=O)c2cccs2)cc1Cl	-4.2%	-8%	-2	-10%
Cc1cc(C)c2c(=O)[nH]c(SCc3ccccc3C)nc2n1	u	0%	-6	-17%
O=S(=O)(c1ccccc1Oc1ccc(Cl)cc1Cl)N1CCCCC1	-0.3%	-3%	-5	8%
Cc1c(C(=O)Nc2nccs2)oc2ccc(Br)cc12	0.0%	x	x	-11%
CCn1c(O)c(C=NCc2ccccc2)sc1=S	u	-20%	3	-14%
O=C(Nc1ccc(O)c2c(=O)cc(-c3ccccc3Cl)oc12)c1ccc(F)cc1	0.3%	0%	2	9%
Cc1cccc(OCCn2c(=O)sc3ccccc32)c1	0.7%	-75%	-11	-13%
CC(C)c1ccccc1NC(=O)c1cccnc1	-2.1%	-1%	4	-12%
Cc1ccc(N(CC(=O)NCc2ccccc2)S(=O)(=O)c2c(C)noc2C)cc1	0.0%	-4%	x	-10%
CC(=O)Nc1ccc(NC(=O)c2ccc(N(Cc3ccccc3C)S(C)(=O)=O)cc2)cc1	-0.6%	x	x	-6%
CC(Sc1nc2ccccc2s1)C(=O)N1CCOCC1 (stereo unspecified)	-4.2%	-30%	-9	2%
Cc1ccc(C(C(=O)NC2CCCC2)N(Cc2ccc3c(c2)OCO3)C(=O)c2snc(C(N)=O)c2N)cc1 (stereo unspecified)	3.4%	-4%	-11	6%

Some of the entries above, set out differently.
Rango-impB inh,miR-21 reporter,GLA inh pH 4.5,Rango dissoc inh,smiles
0.3%,0%,2,9%,O=C(Nc1ccc(O)c2c(=O)cc(-c3ccccc3Cl)oc12)c1ccc(F)cc1
0.7%,-75%,-11,-13%,Cc1cccc(OCCn2c(=O)sc3ccccc32)c1
-2.1%,-1%,4,-12%,CC(C)c1ccccc1NC(=O)c1cccnc1
0.0%,-4%,x,-10%,Cc1ccc(N(CC(=O)NCc2ccccc2)S(=O)(=O)c2c(C)noc2C)cc1
-0.6%,x,x,-6%,CC(=O)Nc1ccc(NC(=O)c2ccc(N(Cc3ccccc3C)S(C)(=O)=O)cc2)cc1
-4.2%,-30%,-9,2%,CC(Sc1nc2ccccc2s1)C(=O)N1CCOCC1 (stereo unspecified)
3.4%,-4%,-11,6%,Cc1ccc(C(C(=O)NC2CCCC2)N(Cc2ccc3c(c2)OCO3)C(=O)c2snc(C(N)=O)c2N)cc1 (stereo unspecified)

Next records follow:
SMILES	Rango-impB inh	miR-21 reporter	GLA inh pH 4.5	Rango dissoc inh
COc1ccc(S(=O)(=O)Nc2ccc(NC(C)=O)cc2)cc1Br	0.1%	1%	-7	-1%
COC(=O)CNC(=O)/C=C/c1ccc(OC)cc1	-1.2%	-22%	4	u
COc1ccccc1C(CNC(=O)c1oc2ccccc2c1C)N1CCCC1 (stereo unspecified)	-1.7%	x	x	-18%
CC(=O)N1CCN(Cc2nc3cc(NC(=O)c4cccc(Br)c4)ccc3n2C)CC1	-4.4%	7%	-3	-18%
Cc1ccc(Sc2oc(/C=N/n3cnnc3)cc2Br)cc1	-2.0%	0%	3	-11%
c1ccc(-c2ccc(CN3C[C@@H]4C(c5ccccc5)C5(c6cccnc6)CC4(C5)[C@H]3c3ccccc3)cc2)cc1 (stereo partly specified)	u	-4%	2&9	5%
Cc1ccc(CCNCc2c(C(=O)O)c(C)n(-c3ccccc3)c2C)cc1	6.1%	0%	x	-20%
O=S(=O)(c1ccc(F)cc1)c1nc(-c2ccco2)oc1Nc1ccccc1	-2.5%	-33%	-1	-25%
COc1ccc(NC2CCCN(C(=O)c3ccc(C(C)=O)s3)C2)cc1 (stereo unspecified)	-0.9%	-1%	x	12%
CC(C)(O)C(O)COc1c2ccoc2cc2oc(=O)ccc12 (stereo unspecified)	-3.4%	-5%	7	-1%
CS(=O)(=O)N(Cc1ccccc1)c1ccc(C(=O)NC2CCCCC2O)cc1 (stereo unspecified)	-6.6%	-2%	2	0%
Cc1ccccc1-n1c(C)nnc1SCC(=O)N1CC(=O)Nc2ccccc21	-2.9%	-3%	14	-8%
C=CCCC(=O)N1C[C@H]2CON(C)[C@H]2C[C@H]1c1ccccc1Br	u	x	x	u
COc1ccc(-c2cc(C(=O)NC3CC3)c3ccccc3n2)cc1	4.2%	-7%	x	-14%
CCOc1ccccc1NC(=O)CSc1nnc(-c2ccccn2)n1Cc1ccco1	0.1%	-6%	8	-4%
CC1SC(=NC(=O)c2ccncc2)NC1=O (stereo unspecified)	-4.6%	0%	5	26%
COc1ccccc1N1CCN(Cc2nc(N)nc(Nc3ccc(C)c(Cl)c3)n2)CC1	-0.2%	21%	-4	1%
CCCc1cc(=O)[nH]c(SCC(=O)Nc2sc(C(N)=O)c(C)c2C(=O)OCCOC)n1	-1.5%	x	x	-8%
COc1cc(CNC(=O)c2cnc(C)cn2)cc(OC)c1	0.9%	2%	x	2%
COc1cccc(N(CC(=O)NCc2ccccc2)C(=O)CCC(=O)Nc2nccs2)c1	0.4%	-3%	x	11%
C[C@H](CO)N1C[C@H](C)[C@@H](CN(C)S(=O)(=O)c2ccc(F)cc2)Oc2c(NS(=O)(=O)c3ccc(F)cc3)cccc2C1=O	11%	x	x	-4%
O=C(/C=C/c1ccc(Cl)cc1Cl)N1CCN(c2ccccc2[N+](=O)[O-])CC1	-3.1%	0%	1	-7%
CCOC(=O)c1c(C)[nH]c(C)c1C(=O)COC(=O)c1cccnc1OCC	-2.9%	x	x	-10%
Cc1cccc(NC(=S)NC2CC3CCC(C2)N3Cc2ccco2)c1 (stereo unspecified)	2.8%	-3%	-3	-1%
COc1ccc(-n2c(SCC(=O)NCC3CCCO3)nc3c([nH]c4ccccc43)c2=O)cc1OC (stereo unspecified)	1.3%	0%	x	-12%
COc1ccc(/C=C2/SC(=S)N(c3ccc(S(=O)(=O)Nc4nccs4)cc3)C2=O)cc1	-0.3%	-3%	-5	-6%
CC1(C)Cc2ccccc2C2=C(C(=O)N3CCCCCC3)C(=O)C(=O)N21	-1.3%	1%	-1[21.1 µM]	1%
O=C(CCn1c(=O)c2sccc2n(CC(=O)OCc2ccccc2)c1=O)NCc1ccco1	1.9%	0%	4	-9%
O=C(O)C1CCN(C(=O)c2scc3c2OCCO3)CC1	u	-1%	-4	-6%
O=C(NCc1ccccc1)c1nccnc1CO	-5.2%	-2%	x	-7%
Cc1cc(C)n2nc(SCC(=O)Nc3c(C)n(C)n(-c4ccccc4)c3=O)nc2n1	0.1%	0%	-9	-3%
CCOC(=O)Cc1csc(NC(=O)COc2ccc3c(C)cc(=O)oc3c2)n1	-0.1%	-1%	4	-19%
Cc1nnc(NC(=O)c2ccc3c(c2)OCO3)s1	u	-39%	2	-16%
COc1ccc(NC(=S)N2CCN(S(=O)(=O)c3ccccc3)CC2)cc1OC	-2.3%	-6%	x	-4%
O=C(CC(C(=O)N1CCc2ccccc21)n1ccnc1)NCc1ccccc1 (stereo unspecified)	-0.7%	0%	-6	-2%
CC[C@]12c3[nH]c4ccccc4c3CCN1C(=O)C(CC(=O)NCc1ccco1)C[C@@H]2C(=O)N1CCN(C(=O)c2ccco2)CC1 (stereo partly specified)	-2.4%	x	x	-12%
CCOc1ccccc1C1NC(=O)NC(C)=C1C(=O)OCc1ccccc1 (stereo unspecified)	0.4%	2%	x	2%
CCN(C[C@H]1N[C@@](C)(C(=O)OC)[C@H]2C(=O)N(Cc3ccccc3)C(=O)[C@@H]12)C(=O)NC(C)C	4.3%	x	x	20%
CC(Oc1ccc(C#N)cc1)C(=O)c1ccc(F)c(F)c1 (stereo unspecified)	-4.3%	4%	3	5%
Cc1ccc(C(=O)NCCc2ccc(F)cc2)s1	0.3%	-43%	0	-1%
O=C1S/C(=C\C=C\c2ccco2)C(=O)N1c1ccccc1	0.4%	-56%	10	-2%
CCN(CC)S(=O)(=O)c1cccc(C(=O)Nc2cc(C)on2)c1	-1.7%	-2%	x	6%
c1nc(N2CCC3(CC2)OCCO3)c2c3c(sc2n1)CCCC3	0.2%	1%	2	5%
Clc1ccc(/C=C/c2nc(Cl)c(-c3ccc(Cl)cc3)c(Cl)n2)cc1	0.1%	-2%	11	1%
CN(C)S(=O)(=O)c1cccc(C(=O)OCC(=O)Nc2sccc2C#N)c1	-1.3%	-8%	3	2%
NC(=O)C1CCN(C(=O)c2ccc(C(F)(F)F)cc2)CC1	1.9%	-1%	15	-13%
CCOc1ccc(NC(=O)N2CC(C)OC(C)C2)cc1 (stereo unspecified)	0.1%	-3%	x	-10%

Screening data from PubChem.
